Screens: PubChem, several laboratories
M5 ag – human M5 muscarinic receptor agonists, primary screen, CHO-K1 cells, Fluo-8 calcium fluorescence; Muscarinic acetylcholine receptor M5 (Homo sapiens), P08912; 0.19% of 360,000 active; activation, % at 3 µM; CHO-K1 hM5 cells; 0% DMSO wells, 100% maximal acetylcholine response;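 active = activation above the run's mean over test compounds plus 3 SD, cut at about 23% in these data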;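 also: signal is peak over basal fluorescence ratio across the kinetic read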
Target sequence (P08912 whole entry, looked up): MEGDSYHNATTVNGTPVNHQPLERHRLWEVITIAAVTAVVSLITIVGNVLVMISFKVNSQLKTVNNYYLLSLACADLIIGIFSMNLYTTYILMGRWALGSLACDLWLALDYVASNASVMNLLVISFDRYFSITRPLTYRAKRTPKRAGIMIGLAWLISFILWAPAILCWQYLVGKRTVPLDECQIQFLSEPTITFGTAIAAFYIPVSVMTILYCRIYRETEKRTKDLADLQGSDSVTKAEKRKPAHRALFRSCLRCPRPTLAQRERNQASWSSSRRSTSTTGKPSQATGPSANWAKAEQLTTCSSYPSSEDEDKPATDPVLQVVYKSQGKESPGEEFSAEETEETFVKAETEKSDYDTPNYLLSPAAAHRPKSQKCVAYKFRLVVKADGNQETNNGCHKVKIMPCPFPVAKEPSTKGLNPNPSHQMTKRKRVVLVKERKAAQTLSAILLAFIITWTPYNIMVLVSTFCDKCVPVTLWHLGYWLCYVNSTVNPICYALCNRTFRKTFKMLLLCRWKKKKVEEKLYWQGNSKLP
CHRM5 PAM – human M5 muscarinic receptor positive allosteric modulators, primary screen, CHO-K1 cells, Fluo-8 calcium fluorescence; CHO-K1 hM5, ACh EC20 PAM; 0% = ACh EC20, 100% = ACh EC100; AID 624038, 2012; 0.3% of 360,000 active; activation, % at 3 µM; Muscarinic acetylcholine receptor M5 (Homo sapiens), P08912;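 active = activation above the run cutoff, the mean activation of all test compounds plus 3 SD, cut at about 18% in these data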
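Probe or stimulus: acetylcholine, EC20 level; Assay system: human M5 receptor in CHO-K1 cells; Schedule: compound preincubation 140 s before EC20 acetylcholine addition; Technique: intracellular calcium via Fluo-8 fluorescence; Dosing: single-point, 3 µM nominal; Read-out basis: percent activation from peak-over-basal fluorescence ratio, scaled EC20-to-EC100 acetylcholine; Repeats: one well per compound, no replicates.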
CHRM5 antagonist – human M5 muscarinic receptor antagonists, primary screen, CHO cells, Fluo-8 calcium fluorescence; AID 624040, 2012; CHO-hM5 cells, ACh EC80; Muscarinic acetylcholine receptor M5 (Homo sapiens), P08912; inhibition, % at 3 µM; 0.59% of 360,000 active;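 active = inhibition above a per-plate cutoff, the mean of that plate's test compounds plus 3 SD, cut at about 27% in these data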;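 also: 0% = acetylcholine EC80 with DMSO and 100% = DMSO without agonist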
CRFR2-BP ag – agonists of CRF-BP/CRF-R2 complex, primary screen, cell-based, HEK293, calcium dye fluorescence, uHTS | CRF-binding protein / CRF receptor 2 complex (human) | calcium dye fluorescence (FLIPR); percent of saturating CRF peptide response | activation, % at 13.2 µM | 0.46% of 350,000 active | AID 588473, 2011;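 active = activation of at least 50%, plus an integration ratio under a set limit after plate pattern correction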;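 also: plate controls were neutral control wells without compound for no effect and CRF at EC100 for full effect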
* marks the source's active call; other numbers are inactive results; i = inactive; · = no result given; & = joins results of further samples.

M5 ag | CHRM5 PAM | CHRM5 antagonist | CRFR2-BP ag | compound
1&2 | -2&1 | -3&-2 | 11&0.4 | COC(=O)[C@H]1[C@H]2C[C@H]3c4[nH]c5ccccc5c4CCN3C[C@@H]2CC[C@@H]1O
1 | 6 | -3 | 2.1 | N[C@@H](Cc1ccc(O)c(O)c1)C(=O)O
0 | -2 | 3 | 0.1 | NC(=O)NO
3 | 6 | 1 | 0.6 | O=C1CCC(C(=O)O)N1 (stereo not given)
0 | 5 | 1 | -0.7 | CC(C)(C)NC(=O)[C@H]1CC[C@H]2[C@@H]3CC[C@H]4NC(=O)C=C[C@]4(C)[C@H]3CC[C@]12C
1&-19 | -18&-31 | 99* | -0.7&1.4 | CN(C)CC/C=C1/c2ccccc2Sc2ccc(Cl)cc21
11 | -1 | -1 | i | CC(C)(C(=O)O)c1ccc([C@H](O)CCCN2CCC(C(O)(c3ccccc3)c3ccccc3)CC2)cc1
5 | -11 | -2 | 0.7 | C[C@]12CC[C@@H]3c4ccc(O)cc4CC[C@H]3[C@@H]1CC[C@@H]2O
· | · | · | -0.1 | CC(=O)c1cccc(OCc2cc(C(=O)N(C)C(C)c3ccccn3)no2)c1 (stereo not given)
2 | 4 | -2 | 1.7 | COc1cccc(OC)c1C(=O)N[C@@H]1C(=O)N2[C@@H]1SC(C)(C)[C@@H]2C(=O)O
-1 | -2 | -2 | 1.2 | CCN(CC)CCNC(=O)c1cc(Br)c(N)cc1OC
2&2 | 4&-1 | -11&2 | 0.5&5.2 | Cc1ccc2c(c1)c1c3n2CCNC3CCC1 (stereo not given)
2 | -2 | 4 | 4.2 | CC(=O)O[C@H]1C(=O)[C@@]2(C)C([C@H](OC(=O)c3ccccc3)[C@]3(O)C[C@H](OC(=O)[C@H](O)[C@@H](NC(=O)c4ccccc4)c4ccccc4)C(C)=C1C3(C)C)[C@]1(OC(C)=O)CO[C@@H]1C[C@H]2O (stereo not given in full)
-1 | -5 | 6 | 0.4 | COc1cc(NC(C)CCCN)c2ncccc2c1 (stereo not given)

One compound at a time, as listed above. Order of values: M5 ag, CHRM5 PAM, CHRM5 antagonist, CRFR2-BP ag
Shown for N[C@@H](Cc1ccc(O)c(O)c1)C(=O)O → 1, 6, -3, 2.1
Shown for COC(=O)[C@H]1[C@H]2C[C@H]3c4[nH]c5ccccc5c4CCN3C[C@@H]2CC[C@@H]1O → 1&2, -2&1, -3&-2, 11&0.4

A portion from further up:
M5 ag | CHRM5 PAM | CHRM5 antagonist | CRFR2-BP ag | compound
1&2 | -2&1 | -3&-2 | 11&0.4 | COC(=O)[C@H]1[C@H]2C[C@H]3c4[nH]c5ccccc5c4CCN3C[C@@H]2CC[C@@H]1O
1 | 6 | -3 | 2.1 | N[C@@H](Cc1ccc(O)c(O)c1)C(=O)O
0 | -2 | 3 | 0.1 | NC(=O)NO
3 | 6 | 1 | 0.6 | O=C1CCC(C(=O)O)N1 (stereo not given)
0 | 5 | 1 | -0.7 | CC(C)(C)NC(=O)[C@H]1CC[C@H]2[C@@H]3CC[C@H]4NC(=O)C=C[C@]4(C)[C@H]3CC[C@]12C
1&-19 | -18&-31 | 99* | -0.7&1.4 | CN(C)CC/C=C1/c2ccccc2Sc2ccc(Cl)cc21
11 | -1 | -1 | i | CC(C)(C(=O)O)c1ccc([C@H](O)CCCN2CCC(C(O)(c3ccccc3)c3ccccc3)CC2)cc1
5 | -11 | -2 | 0.7 | C[C@]12CC[C@@H]3c4ccc(O)cc4CC[C@H]3[C@@H]1CC[C@@H]2O
· | · | · | -0.1 | CC(=O)c1cccc(OCc2cc(C(=O)N(C)C(C)c3ccccn3)no2)c1 (stereo not given)

This is a subset (hit frequency here may not be typical).
